Compound activity (PubChem)
PV pol inh: inhibitors of poliovirus RNA polymerase binding and polymerization | P03300 | poliovirus polymerase elongation, fluorescence polarization; hits give low values | % elongation, % (compound at 16.7 µg/mL) | hit rate 0.66% among 150,000; in the data active = % elongation below about 90%; also: some results filed as inactive read as strong as hits
Target sequence (P03300 1749-2209 limits assumed): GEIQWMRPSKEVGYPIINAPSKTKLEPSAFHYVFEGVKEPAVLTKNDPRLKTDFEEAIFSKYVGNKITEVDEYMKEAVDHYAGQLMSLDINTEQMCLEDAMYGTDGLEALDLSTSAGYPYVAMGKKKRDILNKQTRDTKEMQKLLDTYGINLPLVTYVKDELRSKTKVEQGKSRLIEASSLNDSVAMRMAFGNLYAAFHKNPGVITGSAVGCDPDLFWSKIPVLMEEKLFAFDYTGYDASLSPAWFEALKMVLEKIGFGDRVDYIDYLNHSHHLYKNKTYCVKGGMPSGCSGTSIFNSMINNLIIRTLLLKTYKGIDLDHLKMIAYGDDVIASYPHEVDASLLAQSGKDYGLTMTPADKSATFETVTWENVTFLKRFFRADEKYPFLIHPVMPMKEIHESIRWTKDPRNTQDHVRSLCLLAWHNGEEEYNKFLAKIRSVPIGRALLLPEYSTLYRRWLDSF
PV pol inh intensity: also measured in PV pol inh; calls as there; % elongation; measured here: total intensity read-out; formula for this scale not given here;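 total fluorescence in place of polarization; lower means less elongation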
Starred values were filed as active, the others as inactive. Only part of the results is shown (hit frequency here may not be typical).

Compound	PV pol inh	PV pol inh intensity
COc1ccc(N2C(=O)CS(=O)(=O)C23C(=O)N(Cc2ccccc2)c2ccccc23)cc1 (centres undefined)	100	106
Cc1ccc(CS(=O)(=O)c2ncc(Cl)c(C(=O)Nc3nc4ccc(F)cc4s3)n2)cc1	109	112
COc1ccc(S(=O)(=O)NCCS(=O)(=O)N2CCN(c3ccccc3)CC2)cc1OC	97	96
COc1ccc(CCNC(=O)c2ccc(Cn3c(SCc4ccccc4)nc4cccnc43)cc2)cc1	111	112
CC(C)c1ccc(CNc2nc(-c3ccco3)nn2S(=O)(=O)c2ccc(F)cc2)cc1	114	114
CC(C)(C)C1CCc2c(sc(NC(=O)c3ccccc3F)c2C(=O)N2CCCCC2)C1 (centres undefined)	105	106
CCCN1CCN(CCCNC(=O)Cn2c(-c3cccs3)cc3cc(Cl)ccc32)CC1	109	108
COc1ccc(CNC(=O)c2cnc3sc(N4CCOCC4)nn3c2=O)cc1	105	98
CC1CN(C(=O)N2CCC(C(=O)N3CCN(c4ccccc4)CC3)CC2)c2cc(Cl)ccc2O1 (centres undefined)	108	105
CC(=O)N1CCCC1c1nc2ccccc2n1Cc1ccccc1 (centres undefined)	112	105
COc1cc(NC(=O)CCn2nc(C)cc2C)cc(OC)c1OC	107	104
CCc1ccc(C(=O)COC(=O)C(Cc2c[nH]c3ccccc23)NC(=O)c2ccc(CC)cc2)cc1 (centres undefined)	102	107

Structural class, those above with two or more sulfur atoms
Compound	PV pol inh	PV pol inh intensity
Cc1ccc(CS(=O)(=O)c2ncc(Cl)c(C(=O)Nc3nc4ccc(F)cc4s3)n2)cc1	109	112
COc1ccc(S(=O)(=O)NCCS(=O)(=O)N2CCN(c3ccccc3)CC2)cc1OC	97	96

(listing goes on)
Compound	PV pol inh	PV pol inh intensity
Cc1ccccc1Cn1c(C(=O)O)c(CNCc2cccc(F)c2)c2ccccc21	105	115
Cc1c(Cl)cccc1NC(=O)CSc1ncccc1C(=O)Oc1ccccc1Cl	110	111
Cc1cc(C)cc(NC(=O)CSc2nc3c(cnn3-c3ccc(F)cc3)c(=O)[nH]2)c1	107	112
CCn1c(=O)c(C(=O)Nc2ccc(C(C)=O)cc2)nc2ccccc21	116	115
COc1ccccc1CNC(=O)CCC1N=C2c3ccccc3N=C(SCC(N)=O)N2C1=O (centres undefined)	109	108
CCOC(=O)c1cnc2ccc(C)cc2c1Nc1ccc(N(CC)CC)cc1	109	111
CCCCNS(=O)(=O)c1ccc(C)c(-c2nnc3c4ccccc4c(C)nn23)c1	108	110
COc1cccc2c1cc1c(=O)n(CC(=O)NCc3ccc(C)o3)nc(C)n12	102	105
Cc1ccc(NC(=O)c2ccccc2Br)c(C(=O)c2ccccc2)c1	102	104
O=C(Nc1ccc(F)cc1F)c1cc(CN2CCOCC2)on1	112	117
COc1ccc(NC(=O)CCCn2c(=O)c3cccn3c3ccccc32)c(OC)c1	109	114
COc1ccccc1-c1cc(C(=O)NCc2ccccc2)c2c(-c3ccc(C)cc3)[nH]nc2n1	100	105

Further compounds follow.
Compound	PV pol inh	PV pol inh intensity
Cc1ccn2c(=O)cc(COc3ccc(NC(=O)COc4ccc(Cl)cc4)cc3)nc2c1	108	111
COc1ccc(NC(=O)Cn2c(SCc3ccc(C)cc3)nc3cccnc32)cc1OC	115	111
Cc1ccccc1Cn1cc(S(=O)(=O)c2ccc(F)cc2)c(=O)c2cc3c(cc21)OCO3	103	107
CCCCNC(=O)c1ccc2c(c1)N=C(CC)c1ccccc1S2	113	117
COc1ccc(-c2nc3n(n2)C(=O)CC(c2ccc(Cl)cc2)S3)cc1 (centres undefined)	100	103
Cc1ccc(C)c(NC(=O)N2CCN3CCCCC3C2)c1 (centres undefined)	111	113
CC1CCN(c2nn3c(=O)c(C(=O)NCc4ccc(Cl)cc4)cnc3s2)CC1	102	109
CCOC(=O)c1c(C)[nH]c(C)c1S(=O)(=O)N1CCCC(C(=O)N2CCN(c3cccc(C)c3C)CC2)C1 (centres undefined)	98	95
COc1cc(C(=O)Nc2nonc2-c2ccc(C)c(C)c2)cc(OC)c1OC	108	113
COC(=O)c1cc2sc(Cl)cc2n1CC(=O)Nc1cc(C)cc(C)c1	107	114
COc1ccccc1NC(=O)CSC1=Nc2ccccc2C2=NC(CCC(=O)NCCc3ccccc3)C(=O)N12 (centres undefined)	107	106
CCn1c2ccccc2c2cc(CN3CCN(Cc4ccc(Cl)cc4)CC3)ccc21	105	109

Further compounds follow.
Compound	PV pol inh	PV pol inh intensity
Cc1ccc2c(=O)cc(C(=O)Nc3ccc(S(=O)(=O)N4CCCCC4)cc3)oc2c1C	111	100
COc1ccc(OC)c(NC(=O)c2cc3c(n(-c4ccc(Cl)cc4)c2=O)CC(C)(C)CC3=O)c1	110	112
Cc1ccc(/C=C/c2onc(C)c2S(=O)(=O)N2CCC(C(=O)N3CCN(c4ccccc4F)CC3)CC2)cc1	106	95
COc1cccc(NC(=O)c2oc3ccccc3c2NC(=O)COc2ccccc2C)c1	99	96
COc1ccc(NC(=O)C2=C(C)Nc3c(C(=O)Nc4ccc(C)cc4)cnn3C2c2cccc(Cl)c2)cc1 (centres undefined)	107	105
Fc1ccc(F)c(Nc2c3c(nc4ccc(Cl)cc24)CCC3)c1	101	105
COc1ccc(-c2cn3c(n2)sc2cc(C(=O)NCCCc4ccccc4)ccc23)cc1	111	107
CCCN1C(C(=O)c2ccccc2)=C(OC(=O)C(C)(C)C)c2ccccc2S1(=O)=O	111	110
Cc1ccc(NC(=O)Cn2c(=O)n(CCC(=O)NCc3ccccc3Cl)c(=O)c3ccccc32)cc1	110	102
O=C1COc2ccc(-c3cc(-c4ccc(Cl)cc4)c4c(n3)-c3ccccc3OC4)cc2N1	108	108
CC1CCN(S(=O)(=O)c2ccc3c(ccc(=O)n3CC(=O)NCc3ccccc3Cl)c2)CC1	106	113
Cc1ccc(N(C)S(=O)(=O)c2c(-c3ccccc3)csc2C(=O)O)cc1	103	104

By substructure, those above with an NH in an aromatic ring
Compound	PV pol inh	PV pol inh intensity
CCc1ccc(C(=O)COC(=O)C(Cc2c[nH]c3ccccc23)NC(=O)c2ccc(CC)cc2)cc1 (centres undefined)	102	107
Cc1cc(C)cc(NC(=O)CSc2nc3c(cnn3-c3ccc(F)cc3)c(=O)[nH]2)c1	107	112
COc1ccccc1-c1cc(C(=O)NCc2ccccc2)c2c(-c3ccc(C)cc3)[nH]nc2n1	100	105
CCOC(=O)c1c(C)[nH]c(C)c1S(=O)(=O)N1CCCC(C(=O)N2CCN(c3cccc(C)c3C)CC2)C1 (centres undefined)	98	95

Remaining list, next part:
Compound	PV pol inh	PV pol inh intensity
O=C(NCCc1csc(-c2ccc(F)cc2)n1)c1c(F)cccc1Cl	100	100
O=C(c1ccc(Cl)cc1)N1CCC(c2nc3ccccc3o2)CC1	108	113
CCOC(=O)c1[nH]c(C)c(CCC(=O)NCc2ccc(N(C)C)cc2)c1C	110	109
CCCN(CCC)CCCNC(=O)c1cnn(-c2ccc(F)cc2)c1-n1cccc1	108	91
COc1cccc(NC(=O)C2CCN(S(=O)(=O)c3ccc4[nH]c5c(c4c3)CCCCC5)CC2)c1	114	110
O=C(C1CCN(S(=O)(=O)Cc2ccccc2)CC1)N1CCN(c2ccc(F)cc2)CC1	114	114
Cc1cc(C)cc(Nc2nc3ccccc3n3cnnc23)c1	104	103
COC(=O)c1ccc(NC(=O)CC2C(=O)N(c3ccc(Cl)cc3)C(=O)N2Cc2cccs2)cc1 (centres undefined)	110	113
CCS(=O)(=O)NCCc1csc2nc(-c3ccc(C)cc3)nn12	111	113
COc1cc(OC)c(NC(=O)CCCn2nc(C)c3sc4ccccc4c3c2=O)cc1Cl	109	111
COc1cccc(CNC(=O)CCCN2C(=O)CSc3c2c(C)nn3-c2ccccc2)c1OC	98	96
CC(C)Oc1ccc(CNC(=O)c2ccc3c(c2)N(C)C(=O)C2CCCCN32)cc1 (centres undefined)	100	104

Additional entries
Compound	PV pol inh	PV pol inh intensity
Cc1nn2c(=O)cc(COc3ccc(/C=C(\C#N)C(=O)Nc4ccccc4C)cc3)nc2s1	104	106
CCCSc1ncc(Cl)c(C(=O)Nc2sc(C(C)=O)c(C)c2C(=O)OCC)n1	108	106
O=C(Cc1ccc(-c2ccccc2)cc1)NCCS(=O)(=O)N1CCN(c2ccccc2F)CC1	110	102
O=C(NCc1ccco1)c1ccc2c(c1)N(Cc1ccc(Cl)cc1)C(=O)c1ccccc1S2	103	105
CCOc1ccc(-n2c(SCC(=O)Nc3ccc(F)cc3)nc3c([nH]c4ccccc43)c2=O)cc1	106	111
Cc1ccccc1CSc1ncc(Cl)c(C(=O)Nc2nc3ccc(F)cc3s2)n1	103	105
O=C(NC1(C(F)(F)F)NC(=O)N(CCc2ccccc2)C1=O)c1ccc(Cl)cc1 (centres undefined)	104	103
COc1cccc(C(=O)N2CCc3cc(OC)c(OC)cc3C2COc2ccc3c(C)cc(=O)oc3c2)c1 (centres undefined)	105	107
CCCOc1ccc(N2CC(C(=O)Nc3cccc(Cl)c3Cl)CC2=O)cc1 (centres undefined)	106	103
CCOC(=O)c1ccc(Nc2cc(-c3ccccc3)nc(C)n2)cc1	106	104
COc1ccc(-n2nc(C(=O)Nc3cc(C)c(Cl)cc3OC)c3c4ccccc4n(C)c3c2=O)cc1	110	114
Cc1ccc(NC(=O)CCCn2nc(C)c3c(C)n(-c4ccccc4)nc3c2=O)c(Cl)c1	109	94

Carrying on.
Compound	PV pol inh	PV pol inh intensity
Cc1cccc(NC(=O)C(Cc2ccccc2)n2cccc2)c1C (centres undefined)	104	106
CCCCN1C(C(=O)c2ccccc2)=C(OC(=O)CC)c2ccccc2S1(=O)=O	112	112
CCn1cc(S(=O)(=O)c2cc(C)cc(C)c2)c(=O)c2cc(F)c(N3CCCCC3)cc21	101	102
Cc1ccc(N2CC(c3nnc(NC(=O)c4ccco4)s3)CC2=O)cc1C (centres undefined)	94	95
CCc1ccc(S(=O)(=O)c2nnn3c2nc(Nc2cc(OC)cc(OC)c2)c2cc(Cl)ccc23)cc1	106	112
Cc1ccc(C)c(N2CCN(S(=O)(=O)c3ccc4[nH]c5c(c4c3)CCCC5)CC2)c1	113	113
O=C(c1ccco1)n1nc(-c2ccc(Cl)cc2)nc1NCc1ccc(F)cc1	106	111
CC(=O)Nc1ccc(S(=O)(=O)N2CCC(N3CCN(Cc4ccc(C)cc4)C(=O)C3=O)CC2)cc1	110	108
O=C(Nc1nc2n(n1)C(c1ccccc1)C=C(c1ccccc1)N2)c1ccccc1 (centres undefined)	102	106
CC(=O)N(Cc1cccnc1)c1nc2c(F)cc(F)cc2s1	106	112
CN1CCN(C(CNC(=O)C(=O)Nc2cccc(Cl)c2)c2ccc3c(c2)OCO3)CC1 (centres undefined)	106	105
Cc1ccc(NC(=O)C(=O)NCC(c2ccc3c(c2)OCO3)N2CCN(C)CC2)cc1C (centres undefined)	105	107

The results go on.
Compound	PV pol inh	PV pol inh intensity
COc1ccc(NC(=O)c2ccco2)cc1NC(=O)COc1ccccc1Cl	107	107
COc1ccc(Cl)cc1NC(=O)Cn1nc(C(F)(F)F)c2c1CCCC2	109	113
O=C(CSc1ncc2c(n1)-c1cc(Cl)ccc1N(Cc1ccccc1)S2(=O)=O)NCCc1ccccc1	119	116
COc1ccc(-c2csc3nc(-c4ccccc4)oc(=O)c23)cc1OC	108	100
COC(=O)c1c(SCC(=O)Nc2cc(OC)cc(OC)c2)[nH]c2ccc(C)cc2c1=O	110	103
O=C(NCc1ccccc1F)c1cccc(NC(=O)N2CCSc3ncccc32)c1	110	102
CCOc1ccc(-n2c(SCC(=O)NCc3ccco3)nc3c([nH]c4ccccc43)c2=O)cc1	101	109
CCc1ccc(OCC(=O)Nc2ccc(S(=O)(=O)Nc3onc(C)c3C)cc2)cc1	98	102
COc1cccc(NC(=O)CC2C(=O)OCCN2Cc2ccccc2)c1 (centres undefined)	101	96
O=C(O)CCCn1cc(NC(=O)COc2ccccc2F)cn1	106	105
CCc1ccc(NC(=O)Cn2cnc3sc(C)c(S(=O)(=O)N4CCN(c5ccccc5OC)CC4)c3c2=O)cc1	107	103
CC1CCN(S(=O)(=O)c2ccc3c(ccn3CCC(=O)NCc3ccc(N(C)C)cc3)c2)CC1	112	114

(continued)
Compound	PV pol inh	PV pol inh intensity
Cc1ccc(OCC(=O)Nc2ccc(Cl)c(-c3nc4ccccc4[nH]3)c2)cc1C	106	102
CCN1CCN(c2nnc(-n3cccc3C(=O)NCc3ccccc3OC)s2)CC1	116	123
O=C1C(Nc2ccccc2)=CC(c2ccc(Br)cc2)N1c1ccccc1 (centres undefined)	109	114
CCCC12CN3CC(C)(CN(C1)C3c1ccccc1Cl)C2=O (centres undefined)	102	106
COc1ccc(NC(=O)CSc2nnc(-c3ccc(OC)cc3)s2)cc1	109	111
CCc1ccc(NC(=O)c2cc3sc(Cl)cc3n2C)cc1	105	108
Cc1cccc(N2CCN(CCCNc3ncnc4onc(-c5ccc(Cl)cc5)c34)CC2C)c1 (centres undefined)	103	112
Cc1ccc(-n2c(SCC(=O)c3ccccc3)nc3c([nH]c4ccccc43)c2=O)cc1	111	116
Cc1ccc(S(=O)(=O)c2nc(-c3ccccc3F)oc2N2CCCCC2)cc1	103	104
CCCCN(c1ccccc1)c1ncnc2c1cnn2-c1cccc(C)c1	107	111
COc1ccc(CCNC(=O)CCn2c(=O)c3ccccc3n(CC(=O)Nc3cc(Cl)ccc3C)c2=O)cc1OC	105	107
CCC(=O)N1CCc2cc(Br)cc(S(=O)(=O)NCCc3ccc(C)cc3)c21	102	104
CCOC(=O)c1ccccc1NC(=O)Cn1ncc2c([nH]c3ccccc32)c1=O	111	110
CCOc1ccc(-c2nc3c(c(SCC(=O)Nc4ccccc4C)n2)Cc2ccccc2O3)cc1	106	105

Profiles as entered above.
CCCCN(c1ccccc1)c1ncnc2c1cnn2-c1cccc(C)c1 as listed: PV pol inh = 107; PV pol inh intensity = 111
CCN1CCN(c2nnc(-n3cccc3C(=O)NCc3ccccc3OC)s2)CC1 as listed: PV pol inh = 116; PV pol inh intensity = 123
